High-throughput results (PubChem)
Lassa entry inh: inhibitors of Lassa virus binding or cell entry. hit rate 1.2% among 300,000. AID 540256. Potency, µM (top dose mostly 37.9 µM), for the others: at the highest dose activity change, negative = inhibition, usual class: inhibitors. Lassa virus pseudotype entry inhibition, cell reporter; control for the full effect not named in the record; active means well fitted inhibition curve with a large enough effect; inconclusive means small, poorly fitted or top-dose-only effect, or effect the other way; inactive means flat fitted curve, though single readings scatter; tested in HEK293 cells; also: % is scaled to controls: 0 for no effect and ±100 for the full control effect; nearly all actives have a fitted effect of over 50% in size; luciferase read-out
SARS PLpro yeast: SARS-CoV PLP inhibition in yeast. AID 485353. Potency, µM (top dose mostly 32.9 µM), for inactives: top-dose activity, positive = growth rescue. S. cerevisiae expressing SARS-CoV PLpro, growth rescue; control for the full effect not named in the record. hit rate 0.19% among 330,000; active means well fitted rising curve with a large enough effect; inconclusive means small, poorly fitted or top-dose-only effect; inactive means no such curve, though single readings can be large or run the other way; also: 0% is about no effect; nearly all actives have a fitted effect of over 55% in size; growth read by luminescence after 48 h
StopGo reporter: lowers the luciferase signal of an FMDV 2A StopGo reporter; human cells with a luciferase reporter of 2A StopGo recoding; control for the full effect not named in the record; hit rate 1.2% among 410,000; AID 1159524; Potency, µM (doses to about 57.9 µM), for inactives: at the top dose signal change, negative = less light; active = well fitted falling curve with a large enough effect; inconclusive = small, poorly fitted or top-dose-only effect; inactive = no such curve, though single readings can be large or run the other way; tested in HEK293T cells; also: % is scaled to controls: 0 for no effect and ±100 for the full control effect; nearly all actives have a fitted effect of over 45% in size; luciferase light after 4 h
Cruzain inh noDet: inhibitors of Trypanosoma cruzi cruzain without detergent; Potency, µM, for the others: max response, negative = inhibition, hits mostly inhibitors; purified cruzain, Z-FR-AMC fluorescence, no detergent; AID 1476; hit rate 2.3% among 200,000; P25779;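 also: plate controls were enzyme without inhibitor for no effect and buffer without enzyme for full effect; nearly all actives have a fitted effect of over 40% in size; top concentration of the series not given in the record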
Target sequence (P25779 123-467 limits assumed): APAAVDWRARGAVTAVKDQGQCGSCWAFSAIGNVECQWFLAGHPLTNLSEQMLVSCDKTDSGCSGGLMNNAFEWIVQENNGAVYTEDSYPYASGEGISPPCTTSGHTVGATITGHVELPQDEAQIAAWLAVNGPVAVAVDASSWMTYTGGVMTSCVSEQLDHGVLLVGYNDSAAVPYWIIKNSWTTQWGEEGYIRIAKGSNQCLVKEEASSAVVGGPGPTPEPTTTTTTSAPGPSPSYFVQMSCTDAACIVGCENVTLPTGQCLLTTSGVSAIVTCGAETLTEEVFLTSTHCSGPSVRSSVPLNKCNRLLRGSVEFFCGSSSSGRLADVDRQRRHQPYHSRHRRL
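Detergent-free condition (0.00005% Triton X-100) in acetate buffer pH 5.5 with DTT. 1.5 nM enzyme and compound were pre-mixed 15 min, then 2 uM Z-FR-AMC substrate added; reaction progress from fluorescence change between first and third reads (60 s).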
NS1 inh: inhibitors of influenza NS1 protein function. Potency, µM (series often up to 46.1 µM), without a hit: top-dose activity, positive = more growth. S. cerevisiae slowed by influenza A NS1, growth recovery by OD600. hit rate 0.4% among 270,000; active means well fitted rising curve with a large enough effect; inconclusive means small, poorly fitted or top-dose-only effect; inactive means no such curve, though single readings can be large or run the other way; also: nearly all actives have a fitted effect of over 50% in size
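Growth recovery, yeast-based: influenza A NS1 expressed in S. cerevisiae causes slow growth, and suppressors are detected by OD600. The parent strain without NS1 is used as positive control.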
RE007 growth inh: less growth of the S. pombe RE007 Vpr strain. Potency, µM (titrated, usually from 92.2 µM), for inactives: top-dose activity change, negative = less growth. S. pombe RE007 Vpr strain, BacTiter-Glo ATP luminescence, 24 h; control for the full effect not named in the record. hit rate 0.21% among 360,000; active = well fitted falling curve with a large enough effect; inconclusive = small, poorly fitted or top-dose-only effect; inactive = no such curve, though single readings can be large or run the other way;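 also: % is scaled to controls: 0 for no effect and ±100 for the full control effect; nearly all actives have a fitted effect of over 50% in size; the assay follows cell death caused by Vpr and the record does not say whether a fall means rescue or toxicity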
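Fission yeast strain RE007, carrying one chromosomally integrated HIV-1 vpr copy, was seeded at OD 0.01 in PMG+AL medium with 23 nL pinned compound. After 24 h at 30 °C and 99% humidity, viability was read by BacTiter-Glo luminescence.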
Cruzain Triton: blocks cruzain activity in presence of Triton detergent. purified cruzain, Z-FR-AMC fluorescence, 0.01% Triton. P25779. Potency, µM, without a hit: max response, negative = inhibition, usual class: inhibitors. hit rate 0.43% among 200,000;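 also: plate controls were neutral wells for no effect and buffer without enzyme for full effect; nearly all actives have a fitted effect of over 40% in size; top concentration of the series not given in the record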
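In this qHTS format, compounds are incubated with 1.5 nM cruzain for 15 min at room temperature before 2 uM Z-FR-AMC is added. Release of AMC is followed at 360/450 nm, and progress is taken as the 60 s fluorescence difference.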
Marburg entry inh: blocks Marburg virus binding to or entry into cells; AID 540276; hit rate 1.8% among 300,000; Marburg virus pseudotyped entry inhibition, cell reporter; control for the full effect not named in the record; about a third of the inactives were read at about 46 µM; Potency, µM (titrated, usually from 37.8 µM), for inactives: at the highest dose activity change, negative = inhibition, hits mostly inhibitors; active = well fitted inhibition curve with a large enough effect; inconclusive = small, poorly fitted or top-dose-only effect, or effect the other way; inactive = flat fitted curve, though single readings scatter; tested in HEK293 cells; about a fifth of its hits are not listed in these tables; also: % is scaled to controls: 0 for no effect and ±100 for the full control effect; luciferase read-out
Active calls of the source: *; ? = inconclusive; . = not tested or not shown; [ ] = dose if it differs, or a comment. Unless noted, calls follow the shape of the dose curve; as a rule, active = well fitted curve in the direction sought with a large enough effect; inconclusive = small, poorly fitted or top-dose-only effect, or another doubt; inactive = no such curve, though single readings can be large; an effect the other way counts as inactive or inconclusive. Potency is read from the fitted curve at half-maximal effect.

SMILES	Lassa entry inh	SARS PLpro yeast	StopGo reporter	Cruzain inh noDet	NS1 inh	RE007 growth inh	Cruzain Triton	Marburg entry inh
CCN(C(=O)c1cc2cc(OC)ccc2oc1=O)c1ccccc1	0.0%	-0.1%	-9.0%	-7.4%	-20.9%	17.2%	8.1%	-8.6%
CCC(C(=O)Nc1ccc2[nH]ncc2c1)c1ccccc1 (stereo not drawn)	?	-2.0%	-2.6%	.	0.1%	-1.3%	.	-3.3%
CC(C)c1ccc(N(CC(=O)NCc2ccco2)C(=O)CCC(=O)Nc2nccs2)cc1	1.6%	-1.0%	1.1%	.	12.1%	-3.8%	.	-21.1%[46.1 µM]
O=C(C1CCN(S(=O)(=O)c2cc(Cl)ccc2Cl)CC1)N1CCOCC1	-19.0%[46.1 µM]	0.2%	-8.8%	.	-0.2%	2.8%	.	0.8%[46.1 µM]
CCOc1ccccc1C(=O)NC1CC2CCCC(C1)N2Cc1ccccc1 (stereo not drawn)	-14.6%	13.9%	-0.1%	2.5%	1.9%	-14.3%	-0.8%	?
CCOC(=O)C1(CCCc2ccccc2)CCN(Cc2nccn2CC)CC1	?	0.3%	?	.	-7.8%	-12.5%	.	?
O=C1CN=C(c2ccccc2)c2cc(Br)ccc2N1	.	5.8%	-0.1%	.	-18.0%	-3.2%	.	.
CCOC(=O)Cc1csc(NC(=O)CN2CCOCC2)n1	10.0%[46.1 µM]	0.6%	6.5%	.	?	5.7%	.	-15.9%[46.1 µM]
CCOC(=O)C(C)Oc1cccc2c(=O)n(CC(=O)N3CCN(C(=O)OCC)CC3)ccc12 (stereo not drawn)	.	1.3%	0.0%	-4.0%	-3.3%	-4.5%	-0.5%	.
Cc1cc(NC(=O)CCC(=O)N(CC(=O)NC2CCCC2)Cc2cccs2)no1	?	-0.6%	9.2%	.	2.4%	-10.2%	.	0.2%[46.1 µM]
CCN(CC)CC#CCOC(c1ccccc1)c1ccccc1	-18.0%	4.6%	-24.9%	.	.	-3.4%	.	-19.5%[46.1 µM]
COc1ccc(CCNC(=O)CSCc2c(F)cccc2Cl)cc1OC	?	0.1%	-11.5%	.	-3.6%	-4.6%	.	?
Cc1c(Nc2ccc3nonc3c2[N+](=O)[O-])c(=O)n(-c2ccccc2)n1C	-18.9%	3.6%	-12.8%	.	.	8.9%	.	-4.8%[46.1 µM]
CCOc1ccc(CNC(=O)C(C)n2ncn3cccc3c2=O)cc1 (stereo not drawn)	-6.0%[46.1 µM]	.	-17.4%	2.7%	.	.	-2.3%	-7.4%[46.1 µM]
CC(C(=O)NCCC1=CCCCC1)c1ccc([N+](=O)[O-])cc1 (stereo not drawn)	-13.7%[46.1 µM]	-2.3%	-17.4%	.	-10.5%	-11.3%	.	?
CN1C(C(=O)NCC2CC2)CC2Cn3c(nc4cc(Cl)c(Cl)cc43)C21 (stereo not drawn)	.	0.9%	-6.8%	.	1.7%	1.6%	.	.
Cc1nc(NC(=S)NC(=O)c2ccccc2)sc1C	.	0.4%	24.3%	.	-2.2%	-4.0%	.	1.5%
O=C(N/C=C/c1ccco1)Nc1cccc(Cl)c1	.	-2.9%	30.4%[activator]	.	3.0%	-8.2%	.	.
COc1ccc(-c2onc(C)c2C)cc1S(=O)(=O)N(C)Cc1ccco1	-20.3%[46.1 µM]	.	-17.4%	1.3%	.	.	-3.0%	.
COc1ccc2c(c1)cc1c(=O)n(CC(=O)NCCCc3ccccc3)nc(C)n12	.	.	-7.4%	19.1%	.	.	-1.1%	-1.7%[46.1 µM]
COC(=O)CC(c1ccc(F)cc1)n1c(C)ccc1C (stereo not drawn)	-1.2%[46.1 µM]	-3.2%	-10.1%	.	0.6%	-7.9%	.	-10.2%[46.1 µM]
CCC1(C)Cc2ccccc2-c2nc(NCCCO)[nH]c(=O)c21 (stereo not drawn)	.	-0.2%	-14.7%	.	-3.8%	3.2%	.	.
Cc1nc(-c2cccc(NC(=O)c3cc4cc(Br)ccc4oc3=O)c2)cs1	4.3%	0.7%	-13.2%	?	-6.7%	26.4%	6.7%	-2.9%
N#C/C(=C\c1ccc(-c2ccc(F)cc2F)o1)c1nc2ccccc2[nH]1	?	.	0.0%	12.6µM*	.	.	-5.2%	.
O=C(O)CCCCCNS(=O)(=O)/C=C/c1ccccc1	2.7%	-0.1%	-3.7%	.	-1.7%	-3.5%	.	-16.4%[46.1 µM]
CC(Sc1ccc(S(=O)(=O)N2CCCC2)cn1)C(N)=O (stereo not drawn)	6.7%	-6.6%	-4.0%	.	.	-5.4%	.	11.2%
Clc1ccc(N/N=C/c2cccnc2)cc1	?	-65.5%	-11.6%	9.8%	-33.4%	85.0%	-10.1%	?
O=C(COC(=O)c1n[nH]c(=O)c2ccccc12)Nc1ccccc1F	?	?	-1.1%	.	.	-4.2%	.	22.5%
CCc1cc2ccccc2nc1Cl	-9.4%[46.1 µM]	0.0%	-23.4%	.	1.8%	1.2%	.	1.1%[46.1 µM]
CCOC(=O)c1c(NC(=O)CC2Nc3ccccc3NC2=O)sc(C)c1C (stereo not drawn)	-19.4%	-2.3%	-3.3%	-16.4%	9.5%	-17.7%	-0.8%	1.7%
O=C(O)c1ccccc1CSC1=NCCS1	1.9%	8.0%	2.7%	.	.	16.1%	.	5.4%
Nc1nc(=S)c2ncn(C3OC(CO)CC3O)c2[nH]1 (stereo not drawn)	-5.4%	.	-13.9%	.	.	0.9%	.	28.7%
CNC(=O)N(O)C1N(/N=C/c2cccs2)C(=S)SC1(C)C (stereo not drawn)	?	-0.3%	23.5%	.	4.1%	5.2%	.	11.1%[46.1 µM]
CCC(C)[C@H](NC(=O)NCc1ccco1)C(=O)OC (stereo partly drawn)	4.9%	0.8%	-5.4%	.	-0.9%	-7.6%	.	-25.8%
C[C@H](N)C(=O)N1CCC(C(=O)N[C@@H](Cc2ccccc2)C(=O)Nc2ccc(F)cc2)CC1	.	7.1%	-16.3%	.	0.6%	4.7%	.	.
COc1cccc(-n2c(SCC(=O)Nc3nnc(C)s3)nc3c([nH]c4ccccc43)c2=O)c1	?	.	0.0%	?	.	.	-3.4%	.
Cc1cc(NC(=O)CN2C(=O)/C(=C/c3cccc(Br)c3)SC2=S)no1	15.0%[46.1 µM]	-1.9%	-7.3%	.	.	-11.7%	.	0.0%[46.1 µM]
CCOC(=O)c1cnc(Nc2nc3ccccc3o2)nc1CSc1nnc(C)s1	?	.	16.2%	.	-12.1%	-10.1%	.	?
CC(C)=CC(=O)OCC(=O)Nc1cccc([N+](=O)[O-])c1	-3.3%	17.5%	?	6.7%	-4.5%	-9.0%	-1.4%	-4.2%
COc1ccc(-c2onc(C)c2C)cc1S(=O)(=O)NCC1CCN(Cc2cccc(F)c2)CC1	?	.	9.9%	0.4%	.	.	1.2%	.
CCCCCOc1ccc(N2C(=O)CC(N(O)c3ccccc3)C2=O)cc1 (stereo not drawn)	0.5%	-9.2%	-16.7%	25.1µM*	?	6.0%	-1.1%	-8.0%
Cc1cc(C)nc(SCCC(=O)N2CCOCC2)n1	-1.0%	-7.6%	3.0%	14.6%	2.6%	10.3%	-1.3%	-0.7%[46.1 µM]
O=C(Nc1ccc2c(c1)OCO2)C1CCN(Cc2cc3c(cc2O)OCO3)CC1	24.8%	0.1%	-12.2%	.	0.7%	7.9%	.	2.2%[46.1 µM]
O=C(O)C1C2C=CC(C2)C1C(=O)Nc1nccs1 (stereo not drawn)	0.6%	9.8%	-3.0%	9.7%	-3.1%	-4.0%	-3.3%	13.0%
CNC(=O)c1ccc(NC(=O)COc2ccc(-c3nn(C)c(=O)c4ccccc34)cc2)cc1	-17.1%[46.1 µM]	.	-18.9%	-16.1%	.	.	-3.8%	?
O=P(COCCOCP(=O)(c1ccccc1)c1ccccc1)(c1ccccc1)c1ccccc1	-28.2%	0.6%	-6.4%	26.5%	-1.1%	-4.4%	3.6%	0.0%
COC(=O)c1sccc1NC(=O)Nc1cccc(OC)c1	20.0%[46.1 µM]	-11.3%	29.4%	.	-36.1%	31.6µM*	.	2.3%[46.1 µM]
COc1cccc(CN2CCC(Oc3ccc(C(=O)NCc4ccccn4)cc3)CC2)c1	.	-0.6%	-15.8%	.	6.1%	7.4%	.	.
